Bioassay records from PubChem.
D2 ag = agonists of human D2 dopamine receptor (beta-arrestin); P14416; DiscoveRx PathHunter D2 beta-arrestin, luminescence, 90 min; 100% = 57 uM dopamine signal; activation, % (no concentration beside the values); 360,000 tested, 0.084% active; AID 624465; in the data active = activation above about 40%; inconclusive = about 15% to 40%; inactive = below about 15%; also: compound concentration not given in the record; the text of the record calls up to 30% inactive
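DiscoveRx PathHunter D2 beta-arrestin cells (2,100/well) attached overnight, then compound-stimulated 90 min at 37 C in HBSS/10 mM HEPES/0.1% Tween-20 buffer; beta-galactosidase complementation read by luminescence after 1 h at ambient temperature. Dopamine 57 uM final (EC100) as control.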
Six1-Eya2 blk = Six1/Eya2 interaction inhibition; AlphaScreen GST-Six1/His-Eya2 binding, biochemical; stronger effect = lower value; control for the full effect not named in the record; activity change, % (no concentration beside the values); 360,000 tested, 0.56% active; AID 651725; in the data active = activity change below about -65%; inconclusive = about -30% to -65%; inactive = above about -30%; also: % is scaled to controls: 0 for no effect and ±100 for the full control effect; compound concentration not given in the record
Target sequence (O00167 whole entry, looked up): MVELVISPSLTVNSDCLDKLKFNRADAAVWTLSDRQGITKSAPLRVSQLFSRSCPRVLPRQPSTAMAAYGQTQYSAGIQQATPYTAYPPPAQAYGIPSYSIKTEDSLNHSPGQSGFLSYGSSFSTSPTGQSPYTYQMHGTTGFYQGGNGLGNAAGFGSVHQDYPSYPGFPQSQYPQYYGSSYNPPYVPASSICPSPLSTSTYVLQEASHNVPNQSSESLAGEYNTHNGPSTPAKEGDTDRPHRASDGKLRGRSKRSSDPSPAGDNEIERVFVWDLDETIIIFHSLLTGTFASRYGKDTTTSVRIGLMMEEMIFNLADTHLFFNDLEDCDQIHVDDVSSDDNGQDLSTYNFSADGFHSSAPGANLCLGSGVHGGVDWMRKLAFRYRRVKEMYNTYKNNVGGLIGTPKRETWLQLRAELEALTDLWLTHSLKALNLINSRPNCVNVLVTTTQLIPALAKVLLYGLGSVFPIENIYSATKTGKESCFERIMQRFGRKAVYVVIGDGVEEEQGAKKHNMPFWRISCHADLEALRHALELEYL
Target sequence (Q15475 whole entry, looked up): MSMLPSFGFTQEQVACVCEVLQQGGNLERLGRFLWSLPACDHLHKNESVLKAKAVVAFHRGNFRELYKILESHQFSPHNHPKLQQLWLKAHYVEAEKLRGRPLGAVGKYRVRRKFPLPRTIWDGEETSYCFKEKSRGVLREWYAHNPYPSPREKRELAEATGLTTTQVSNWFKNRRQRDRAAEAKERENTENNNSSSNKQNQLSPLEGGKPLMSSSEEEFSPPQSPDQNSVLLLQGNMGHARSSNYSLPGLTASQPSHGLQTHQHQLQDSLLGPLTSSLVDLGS
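AlphaScreen luminescence read after one hour at 37 °C in darkness. Pin-transferred compounds met GST-Six1 and His-Eya2 protein (5X stock 250 nM/500 nM) plus glutathione donor and Ni-chelate acceptor beads (5X, 50 ug/mL).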
CtBP-E1A blk = CtBP/E1A binding inhibition; AlphaScreen GST-E1A/His-CtBP binding, 1536-well; stronger effect = lower value; control for the full effect not named in the record; activity change, % (test concentration not listed); 340,000 tested, 0.49% active; AID 651724; in the data active means activity change below about -65%; inconclusive means about -30% to -65%; inactive means above about -30%; also: % is scaled to controls: 0 for no effect and ±100 for the full control effect; compound concentration not given in the record
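Homogeneous bead-based format: GST-tagged E1A captured on glutathione donor beads, His-tagged CtBP on nickel acceptor beads; compounds precede bead addition by 2 h at 37 °C.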
gsp antag = gsp mutant antagonism | 340,000 tested, 0.4% active | gsp-mutant cells, cAMP HTRF, 30 min; control for the full effect not named in the record | Potency, µM (titrated, usually from 76.9 µM), for the others: top-dose activity change, negative = inhibition, actives largely listed as inhibitors; active = falling curve of any shape with a large fitted effect; inconclusive = falling curve, mostly with a smaller effect; inactive = flat or rising curve; cell line not stated here;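 also: intracellular cAMP measured with PDE inhibitor Ro 20-1724 present during compound exposure; potency is read from the fitted curve at half-maximal effect; % is scaled to controls: 0 for no effect and ±100 for the full control effect; nearly all actives have a fitted effect of over 65% in size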
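Measurement of cellular cAMP by homogeneous time-resolved fluorescence following a 30 min compound exposure at 37C. The PDE inhibitor […] was present throughout; the assay buffer was DPBS with 0.05% BSA and 0.005% Tween 20.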
D2 potentiator = positive allosteric modulators of human D2 dopamine receptor. DiscoveRx D2 beta-arrestin cells, luminescence, 90 min; 100% = 57 uM dopamine signal. AID 624464. 360,000 tested, 0.23% active. potentiation, % (no concentration beside the values). P14416; active = potentiation of 50% or more; inconclusive = 30% to 50%; inactive = 30% or less;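 also: compound concentration not given in the record; tested on top of an EC20 dose of dopamine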
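D2 cells co-treated with compound plus 50 nM dopamine (EC20) for 90 min at 37 deg C to detect potentiation. Beta-arrestin recruitment was read as enzyme-fragment luminescence after 1 h at ambient temperature. Full response was set by 57 uM dopamine.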
gsp agonist = activates gsp, the McCune-Albright syndrome mutation; gsp mutant cells, cAMP HTRF, 30 min; control for the full effect not named in the record; Potency, µM (highest dose often 76.9 µM), for inactives: at the highest dose activation (cAMP increase), most hits filed as activators; 340,000 tested, 0.13% active; active = well fitted activation curve with a large enough effect; inconclusive = small, poorly fitted or top-dose-only effect, or another doubt; inactive = no such curve, though single readings can be large or run the other way; cell line not stated here;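 also: phosphodiesterase inhibitor Ro 20-1724 added with compounds to block cAMP breakdown; potency is read from the fitted curve at half-maximal effect; nearly all actives have a fitted effect of over 60% in size; about a fifth of the inactives were tested at one dose only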
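Cells in DMEM/10% FBS with G418 were pretreated with compounds in DMSO plus […] (300 uM stock) for 30 min at 37C. cAMP was measured by HTRF (cAMP-d2 plus anti-cAMP antibody-K) after 30 min at room temperature.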
Starred values were filed as active, the others as inactive; ? = inconclusive; / = no result given; [ ] = remark or other dose.

SMILES	D2 ag	Six1-Eya2 blk	CtBP-E1A blk	gsp antag	D2 potentiator	gsp agonist
O=S(=O)(NCCC1=CCCCC1)c1cccc2nsnc12	-2.8	-1	-3	-1%	-6	?
Cc1cc(C)c(C)c(OCCN2CCOCC2)c1	-5.1	1	-5	-6%	-1	30%
Cc1cc(Cl)c(S(=O)(=O)Nc2ccc3c(c2)OCO3)cc1OCC(N)=O	-0.6	-3	-2	-19%	-5	19%
Cc1ccc2oc(C(=O)NCC3CCOCC3)c(C)c2c1	5.8	1	-1	-1%	-4	-1%
O=C(NCc1cccnc1)c1ccc([N+](=O)[O-])o1	11	3	/	12%	0	13%
CN(C)Cc1c(C(=O)N/N=C/c2cccc3ccccc23)nnn1-c1nonc1N	-3.2	1	-6	1%	-10	23%
Cc1c(C(=O)OCC(=O)N(C)Cc2ccccc2)oc2ccccc12	-3.8	7	-1	0%	-5	-44%[inhibitor]
Nc1ccccc1SC1CC(=O)N(c2ccc3c(c2)OCO3)C1=O (configuration not stated)	-2.7	-2	-3	9%	-2	14%
CC(NC(=O)c1ccc(C23CC4CC(CC(C4)C2)C3)cc1)C(=O)O (configuration not stated)	-2.9	-5	-9	-10%	-7	-5%[15.4 µM]
Cc1cccnc1C(NC(=O)C1CCN(Cc2cn(C)c3ccccc23)CC1)c1ccc(Cl)cc1 (configuration not stated)	-4.9	?	-29	/	-17	/
CCOc1ccccc1C(=O)N(CN1CCCC1=O)c1ccc(C)c(Cl)c1	0.7	0	2	-10%	6	-1%
Cc1ccccc1NC(=O)c1sc2nc(N3CCOCC3)c3c(c2c1N)CCCC3	-2.5	12	/	1%	-8	?

Next section; it opens with the 6 that closed the last part.
SMILES	D2 ag	Six1-Eya2 blk	CtBP-E1A blk	gsp antag	D2 potentiator	gsp agonist
Cc1c(C(=O)OCC(=O)N(C)Cc2ccccc2)oc2ccccc12	-3.8	7	-1	0%	-5	-44%[inhibitor]
Nc1ccccc1SC1CC(=O)N(c2ccc3c(c2)OCO3)C1=O (configuration not stated)	-2.7	-2	-3	9%	-2	14%
CC(NC(=O)c1ccc(C23CC4CC(CC(C4)C2)C3)cc1)C(=O)O (configuration not stated)	-2.9	-5	-9	-10%	-7	-5%[15.4 µM]
Cc1cccnc1C(NC(=O)C1CCN(Cc2cn(C)c3ccccc23)CC1)c1ccc(Cl)cc1 (configuration not stated)	-4.9	?	-29	/	-17	/
CCOc1ccccc1C(=O)N(CN1CCCC1=O)c1ccc(C)c(Cl)c1	0.7	0	2	-10%	6	-1%
Cc1ccccc1NC(=O)c1sc2nc(N3CCOCC3)c3c(c2c1N)CCCC3	-2.5	12	/	1%	-8	?
O=C(c1ccccc1)c1c[nH]c(C(=O)NNc2cccc(Cl)n2)c1	-2.0	1	-16	?	-5	?
Cc1cc(OCC(=O)NCCCN2CCCC2=O)c2c(C)cc(=O)oc2c1	-1.4	3	-10	2%	-25	?
COc1ccc(CCNC(=O)CN(C)S(=O)(=O)c2ccc3nc(C)sc3c2)cc1OC	-0.8	0	-9	-5%	-7	-4%
CCCCCC1(C(=O)OCC)CC(CSC(=N)N)OC1=O (configuration not stated)	-6.7	9	3	9%	-6	?
CCCNC(=O)COC(=O)c1ccc(-c2ccccc2)cc1	-6.5	-1	3	-7%	-3	-1%[15.4 µM]
NC(=O)NC(=O)CSc1nc(-c2ccccc2)c(-c2ccccc2)n1CC1CCCO1 (configuration not stated)	-5.5	-20	-2	8%	-13	-15%
Cc1cc(/C=C2/C(=N)N3C(=NC2=O)SN=C3S(C)(=O)=O)c(C)n1-c1ccccc1F	1.8	-8	4	?	4	2%
O=C(Nc1ccc(Cl)cc1)c1ccc2c(c1)OCO2	-1.4	4	6	15%	-22	8%
O=C(NC(=S)Nc1cccc(NC(=S)NC(=O)c2ccco2)n1)c1ccco1	-2.0	?	16	/	-19	-3%[15.4 µM]
COc1cc(C(=O)NCC(=O)OCC(=O)c2ccc[nH]2)cc(OC)c1OC	0.9	3	2	-3%	4	-13%
CC[C@]12c3[nH]c4ccccc4c3CCN1C(=O)C(CC(=O)NCc1cccc(C(F)(F)F)c1)C[C@@H]2C(=O)N1CCN(C(=O)C2CC2)CC1 (some centres not stated)	-1.3	-3	5	-3%	/	/
CCC(C)[C@H](Nc1nc(-c2ccccc2)nc2c1oc1ccccc12)C(=O)O (some centres not stated)	-1.6	11	3	-14%	22	-3%
CC1CC2(CC(C)(C(=O)CSc3nc4ccccc4s3)OC2=O)C(=O)O1 (configuration not stated)	1.2	-1	2	-10%	9	?
COCCSc1ccccc1C(=O)N1CCc2ccccc2C1	0.8	3	-12	/	3	9%[15.4 µM]
O=C(CSc1nnc(-c2ccncc2)n1CC1CCCO1)Nc1nccs1 (configuration not stated)	-3.1	2	-2	-5%	-1	0%
CCNc1ccc(S(=O)(=O)N(C)C)cc1[N+](=O)[O-]	-3.9	8	/	-3%	-5	-84%[inhibitor]
O=C(Nc1cc(S(=O)(=O)N2CCOCC2)ccc1OCC(F)(F)F)C1CCCC1	-2.4	1	-24	/	-16	-4%
CC(=O)c1ccc(-n2cc(-c3ccc(C(C)(C)C)cc3)[n+]3c2SCCC3)cc1	-4.0	12	-16	/	-35	11%[15.4 µM]
COc1ccc(N2CC(C(=O)NCc3nnnn3-c3ccc(C)c(C)c3)CC2=O)cc1 (configuration not stated)	-6.2	3	-17	-10%	-12	?
Cc1ccccc1CC1(CO)CCCN(C(=O)c2cc(Cl)ccc2F)C1 (configuration not stated)	-3.0	1	3	-1%	-10	-5%[15.4 µM]
CC(OC(=O)CN1C(=O)c2ccccc2C1=O)C(=O)NCc1ccccc1 (configuration not stated)	0.7	0	0	0%	-12	-1%[15.4 µM]
CCCCOc1ccc(C(=O)OC(C)CN(C)C)cc1 (configuration not stated)	-0.3	-6	1	9%	-20	-94%[inhibitor]
CC(NO)C(C)(C)NO (configuration not stated)	0.8	3	1	-6%	22	40%
Cc1nc(C)c(C(=O)O)c(-c2ccsc2)c1C(=O)O	-0.7	5	-1	7%	-5	23%[15.4 µM]
CCc1ccccc1NC(=O)CN(C)C(=O)CN1C(=O)NC2(CCCCCC2)C1=O	-1.9	4	-4	-2%	0	-14%
CCc1ccc(NC(=O)[C@H](Cc2ccccc2)NC(=O)C2CCN(C(=O)[C@@H](N)CC(C)C)CC2)cc1	3.0	-3	4	4%	-22	/
Cc1nc(CCNC(=O)C2CCC(=O)N(Cc3cccc(F)c3)C2)sc1C (configuration not stated)	4.3	0	3	4%	-3	11%
CCN(CC(=O)Nc1c(F)cccc1F)C(=O)Cc1ccc2c(c1)OCCO2	-2.0	0	/	4%	-14	-58%[inhibitor]
CN(C(=O)Cc1ccccc1)n1cnnc1	-2.7	5	7	12%	5	-15%
CCOc1ccc(NC(=O)Cn2cncc2-c2ccc([N+](=O)[O-])cc2)cc1	5.2	0	2	1%	-9	-30%
Cc1ccc(NC(=O)NCCCl)cc1S(=O)(=O)N1CCOCC1	-1.5	3	5	7%	-8	-29%
O=C(COC(=O)CCc1c[nH]c(=O)[nH]1)Nc1ccccc1	-3.6	-2	6	2%	-10	1%
COc1cc(OC)c(OC)cc1CN1CCN(Cc2cccn2C)CC1	0.0	-6	3	9%	-21	-16%
O=C(O)c1ccc(S(=O)(=O)c2ccc(Sc3ccc(C(=O)O)c(C(=O)O)c3)cc2)cc1	-0.6	5	0	-7%	-3	2%[15.4 µM]
Cc1cc(NC(=O)Cc2cccs2)no1	-2.0	-16	-2	7%	-7	-23%
CC(=O)Nc1ccc(NC(=O)c2c([N+](=O)[O-])c(C(C)(C)C)nn2C)cc1	-4.4	4	1	-5%	-4	8%[15.4 µM]
O=C(COc1ccccc1)NC(NC(=S)Nc1ccccc1O)C(Cl)(Cl)Cl (configuration not stated)	-0.7	-23	-22	4%	-5	-3%
COCCNC(=O)Cn1cnc2c(cnn2-c2ccc(C)cc2)c1=O	0.0	6	-8	8%	-4	5%
O=C1NC(NS(=O)(=O)c2ccc(Cl)cc2)(C(F)(F)F)C(=O)N1c1ccccc1 (configuration not stated)	-2.6	10	12	7%	3	2%
CC1(C)Cc2c(cnn2-c2ccc(F)cc2)C(NC(=O)CCN2CCCC2=O)C1 (configuration not stated)	-1.8	-1	0	-9%	-4	-26%
CCOC(=O)c1ccc(NC(=O)c2ccc(NS(C)(=O)=O)cc2)cc1	-0.5	0	8	-12%	7	11%
CCCC(CCC)c1nc2ccncc2[nH]1	2.9	-1	4	10%	-1	5%
CCCCN1C(=O)C(CC(=O)NCCc2ccccn2)CC(C(=O)N(CC)CC)=C1C (configuration not stated)	4.9	0	6	/	2	-3%
C/C(=N\Nc1nc(N2CCCCC2)nc(N2CCOCC2)n1)c1cccs1	2.6	1	-23	8%	-3	3%[15.4 µM]
Nc1nc(N)c2cc([N+](=O)[O-])ccc2n1	0.7	-21	-3	0%	-3	17%[15.4 µM]
Fc1ccc2c(c1)C(c1ccc(N3CCOCC3)cc1)=NNC(c1cccs1)=N2	-2.0	-23	-23	-23%	4	-34%[inhibitor]
Cc1cc(C)cc(CC2CC(=O)N(c3cc(C)on3)C2=O)c1 (configuration not stated)	-1.2	0	-2	-3%	0	1%
COc1ccccc1N(CC(=O)Nc1c(C)n(C)n(-c2ccccc2)c1=O)S(=O)(=O)c1ccccc1	-2.7	-2	6	13%	-2	-26%
CCNC(=S)N1CCN(CCN=CC2=C(O)CC(c3ccco3)CC2=O)CC1 (configuration not stated)	-3.7	0	-1	5%	-15	-28%
CC1NC(=O)NC1CCCCCC(=O)Nc1ccc(F)c(Cl)c1 (configuration not stated)	-5.7	14	7	-5%	-14	-5%[15.4 µM]
N#CNC(=Nc1ccc(F)cc1)SCc1ccccc1	-1.4	7	/	-4%	-11	-7%
COc1ccccc1C(=O)N/N=C/C(C)=C/c1ccccc1	3.5	3	5	-18%	-29	5%[15.4 µM]
O=C1CCCN1CCCNc1nc2c(S(=O)(=O)c3ccc(Br)cc3)nnn2c2ccccc12	-8.8	-3	-7	13%	-6	?
Cc1cc(NC(=O)CSc2nc(-c3ccccc3)cs2)no1	-1.6	4	1	0%	-30	-23%
CC(C(=O)Nc1ncccn1)(c1ccccc1)c1ccccc1	2.6	-3	6	-5%	-6	-2%[15.4 µM]
CC(C)(O)C#Cc1ccc(CN2CCCC(CO)(Cc3cccc(Cl)c3)C2)cc1 (configuration not stated)	0.2	-1	-2	0%	-8	0%
CCCCn1c(N)nc2ccccc21	0.1	7	8	6%	-6	-9%
O=C(O)CCCn1c(=O)c2cccn2c2ccc(F)cc21	-2.9	1	-1	-11%	-8	?
N/C(CN1CCCC1=O)=N\OC(=O)c1ccc(Cl)cc1	1.6	3	6	17%	14	-18%[15.4 µM]
